TAR Tat displ = TAR RNA-Tat peptide displacers, HIV-1, primary screen, biochemical, FRET, FAM/TAMRA-labeled Tat | HIV-1 TAR RNA, Tat peptide displacement FRET; hits give high values | z-score (no concentration beside the values) | 100,000 tested, 0.6% active | AID 1259389, 2018;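 also: score is relative to mean and SD of negative controls; some compounds called inactive have numbers as strong as hits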
CDC25B CDK2 inh = primary biochemical HTRF screen for blockers of M-phase inducer phosphatase 2 binding to CDK2/cyclin A; z-score (no concentration beside the values); HTRF CDC25B-CDK2/CyclinA binding, anti-His/anti-Flag; hits give high values; P30305+P24941; 94,000 tested, 0.72% active;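 also: score is relative to mean and SD of negative controls; strong numbers were not always called active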
* hit, by the source's call.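 The calls were made as follows: active = z-score from 3 up in half or more of its runs; inactive = the rest.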

For O=C(CSc1nnc(-c2cccs2)o1)Oc1ccccc1 the results were TAR Tat displ 0.03 and CDC25B CDK2 inh -1.14.
CCCCOC(=O)c1[nH]c2c(c1C)C(=O)CC(c1ccc(N(C)C)cc1)C2 (stereo not drawn) was read as TAR Tat displ 0.02 and CDC25B CDK2 inh 1.16.
Screening CCN(CC)CCNC(=O)C1CCN(c2nnc(N3CCCCC3=O)s2)CC1 returned TAR Tat displ 1.3.
For OCc1cnc(SCc2ccc(Cl)cc2)n1Cc1ccc(F)cc1 the results were TAR Tat displ -1.79.
Screening O=C(Oc1ccc2oc(=O)sc2c1)c1ccc(Br)cc1 returned TAR Tat displ 1.05 and CDC25B CDK2 inh -2.73.
`O=C(CS(=O)(=O)c1ccc2c(c1)S(=O)(=O)N=CN2)NCc1ccc2c(c1)OCO2` gave TAR Tat displ 1.75.
`COc1cc(O)c2c(c1)oc(=O)c1c3cc(O)c(O)cc3oc21` gave TAR Tat displ 38.1*.
Cc1nc2cc(-n3c(O)c[nH]c3=O)ccc2s1 was read as TAR Tat displ 1.98 and CDC25B CDK2 inh -1.25.
Screening Cc1cccc(NS(=O)(=O)c2ccc(-c3ccc(=O)[nH]n3)o2)c1C returned TAR Tat displ 0.96.
For CC(=O)OCC(=O)[C@H]1CCC2C3CCC4=CC(=O)CC[C@]4(C)C3CC[C@@]21C (stereo partly drawn) the results were TAR Tat displ 0.16.
Screening COc1ccc(-c2noc(CSc3nc4ccccc4[nH]3)n2)cc1 returned TAR Tat displ -0.54 and CDC25B CDK2 inh 0.25.
CCCOC(=O)C(C)Oc1ccc2c(=O)c(-c3ccc(Cl)cc3)coc2c1 (stereo not drawn) was read as TAR Tat displ 0.33 and CDC25B CDK2 inh -1.92.

Continued, overlapping the part above by five compounds.
Cc1nc2cc(-n3c(O)c[nH]c3=O)ccc2s1 was read as TAR Tat displ 1.98 and CDC25B CDK2 inh -1.25.
Screening Cc1cccc(NS(=O)(=O)c2ccc(-c3ccc(=O)[nH]n3)o2)c1C returned TAR Tat displ 0.96.
For CC(=O)OCC(=O)[C@H]1CCC2C3CCC4=CC(=O)CC[C@]4(C)C3CC[C@@]21C (stereo partly drawn) the results were TAR Tat displ 0.16.
Screening COc1ccc(-c2noc(CSc3nc4ccccc4[nH]3)n2)cc1 returned TAR Tat displ -0.54 and CDC25B CDK2 inh 0.25.
CCCOC(=O)C(C)Oc1ccc2c(=O)c(-c3ccc(Cl)cc3)coc2c1 (stereo not drawn) was read as TAR Tat displ 0.33 and CDC25B CDK2 inh -1.92.
For COc1cccc(NC(=S)Nc2ccccc2-n2cccc2)c1 the results were CDC25B CDK2 inh -2.37.
`COc1cc(/C=C2\N=C(c3ccccc3)OC2=O)ccc1OC(=O)c1ccc(F)cc1` gave CDC25B CDK2 inh -0.52.
Cc1c(-c2nc(-c3ccccc3)no2)nnn1-c1ccc(C(C)C)cc1 was read as TAR Tat displ 0.24.
`Cc1nn(CCCC(=O)NC2CCCCC2)c(=O)c2nccn12` gave TAR Tat displ 0.76 and CDC25B CDK2 inh -0.63.
COc1ccc(N2CCN(CCCn3c(=S)[nH]c4ncccc4c3=O)CC2)cc1 was read as CDC25B CDK2 inh -1.1.
For O=C1c2ccccc2C(=O)N1CC1c2ccccc2CCN1S(=O)(=O)c1cccc2cccnc12 (stereo not drawn) the results were CDC25B CDK2 inh 1.68.
`COc1ccc(NC(=O)CC2C(=O)N(c3ccc(OC)cc3)C(=O)N2CCc2cccs2)cc1` (stereo not drawn) gave CDC25B CDK2 inh 0.43.
Cc1nc(N2CCN(C)CC2)cc(N2CCN(C(=O)Nc3ccccc3)CC2)n1 was read as TAR Tat displ -0.13 and CDC25B CDK2 inh -0.2.
For CC(C)C1c2cccn2CCN1C(=O)NC1CCCCC1 (stereo not drawn) the results were TAR Tat displ -0.34.
`C=CCN1C(=O)NC2(CCCCC2)C1=O` gave CDC25B CDK2 inh -3.07.
For Cc1ccccc1Nc1c(-c2ccc(N3CCOCC3)cc2)nc2cnccn12 the results were CDC25B CDK2 inh -0.76.
Screening S=C(NCCc1ccccc1)N1CCOCC1 returned CDC25B CDK2 inh 0.01.
Screening Cc1ccc(OCCSc2nnc(Cc3c(C)nc4c(C)cccn4c3=O)n2C)cc1 returned TAR Tat displ -0.43 and CDC25B CDK2 inh -0.57.
`Cc1ccc2c(c1)c(N1CCCC1=O)c(C(=O)NCC1CCCO1)n2C` (stereo not drawn) gave TAR Tat displ -0.03.
CC(C)Cc1nn2c(=O)cc(CSCC(=O)Nc3ccc(F)cc3)nc2s1 was read as TAR Tat displ 0.44.
Screening COc1ccc(Nc2nc3ccccc3c3nncn23)cc1Cl returned TAR Tat displ 2.22 and CDC25B CDK2 inh -2.12.
Screening CCc1ccccc1NS(=O)(=O)c1ccc(-c2cc(C)no2)s1 returned TAR Tat displ -0.2.
Screening Fc1ccc(CSc2nc3ccncc3[nH]2)c(Cl)c1 returned TAR Tat displ 0.32 and CDC25B CDK2 inh 2.12.
For O=c1c(-c2ccc(O)cc2)coc2cc(O)ccc12 the results were TAR Tat displ 1.05 and CDC25B CDK2 inh -0.56.
`CCNc1nc(N2CCCC2)c2cnn(C)c2n1` gave TAR Tat displ 0.
COc1ccc(OC)c(S(=O)(=O)NCCc2sc(C)nc2C)c1 was read as TAR Tat displ 0.47.
Screening CC(=O)Cc1nsc(NC(=O)C2Cc3ccccc3C(=O)O2)n1 (stereo not drawn) returned CDC25B CDK2 inh 0.48.
`COc1ccc(-c2csc3c2ncn2c(=O)n(CC(=O)Nc4ccc(OC)c(OC)c4)nc32)cc1` gave TAR Tat displ 0.77.
For CC(C)(C)C(=O)N1N=C(c2cccc(NS(C)(=O)=O)c2)CC1c1ccccc1F (stereo not drawn) the results were CDC25B CDK2 inh -0.33.
`CC1=NS(=O)(=O)c2cc(S(=O)(=O)CC(=O)Nc3ccc(F)cc3F)ccc2N1` gave TAR Tat displ 1.34.
`COc1cc(C2Nc3ccccc3NC3=C2C(=O)CC(C)(C)C3)ccc1OCc1ccccc1` (stereo not drawn) gave TAR Tat displ -0.12 and CDC25B CDK2 inh -0.62.
`CN(c1nnc(NC(=O)Nc2ccccc2)s1)C1CCCCC1` gave TAR Tat displ 2.36 and CDC25B CDK2 inh -1.03.
For COc1ccc(S(=O)(=O)NCCSc2ccccn2)cc1 the results were TAR Tat displ -1.78 and CDC25B CDK2 inh -0.46.
CCOCCCNC(=O)c1noc2c1CCc1sccc1-2 was read as TAR Tat displ 0.
`O=C(Cn1c(=O)c(CNc2ccccc2)cc2cc3c(cc21)OCCO3)Nc1cccc(Cl)c1` gave TAR Tat displ -7.53.
`CCS(=O)(=O)N1CCC2(CC1)OC(=O)C(C)=C2C(=O)NC1CCCCC1` gave TAR Tat displ 2.24.
CC(=O)OCCn1c(=O)[nH]c(=O)c2nsnc21 was read as TAR Tat displ 1.76 and CDC25B CDK2 inh -1.8.
Cc1cc(-c2nnc(COc3ccc4c(c3)OCO4)o2)ccc1[N+](=O)[O-] was read as CDC25B CDK2 inh 0.21.
COc1ccc(OC)c(-c2noc(N3CCN(c4ncccn4)CC3)n2)c1 was read as TAR Tat displ 0.89.
Screening Cc1ccc(C)c(NS(=O)(=O)c2cc3[nH]c4c(c3cc2C)C(=O)CCC4)c1 returned TAR Tat displ -0.36.
Screening COc1ccc(Cl)cc1Nc1c2c(nc3ncnn13)CCC2 returned TAR Tat displ 1.1.
Screening Cc1nn(CCCC(=O)NCCCN2CCCC2)c(=O)c2c1sc1ccccc12 returned TAR Tat displ 2.2 and CDC25B CDK2 inh -1.74.
Screening O=C(O)C(Nc1ccc2c(c1)OCO2)c1ccccc1 (stereo not drawn) returned CDC25B CDK2 inh -1.9.
For CC(Oc1ccc(Cl)cc1Cl)C(=O)O/N=C(\N)CS(=O)(=O)c1ccc(Cl)cc1 (stereo not drawn) the results were CDC25B CDK2 inh -1.17.
`CN1C(=O)Cc2cc(S(=O)(=O)CCC(=O)Nc3ccccc3)ccc21` gave TAR Tat displ 0.37.
For Clc1cccc(-n2ncc3c(NCc4ccc5c(c4)OCO5)ncnc32)c1 the results were TAR Tat displ -0.35.
Screening CCOC(=O)c1c(C)[nH]c2ccc(O)cc12 returned CDC25B CDK2 inh -1.88.
For O=c1c(C(c2ccc3c(c2)OCO3)c2c(O)sc3ccccc3c2=O)c(O)sc2ccccc12 the results were TAR Tat displ 1.69 and CDC25B CDK2 inh -1.38.
Cc1ccc(-c2csc3ncn(CCCO)c(=O)c23)cc1 was read as TAR Tat displ 1.76 and CDC25B CDK2 inh -0.74.
Cc1cc(C)n(-c2nc3ccccc3nc2N2CCN(S(=O)(=O)c3cccs3)CC2)n1 was read as TAR Tat displ 1.4 and CDC25B CDK2 inh -1.39.
For COc1ccccc1-c1nc(=S)c2c([nH]1)Oc1c(C)ncc(CO)c1C2 the results were TAR Tat displ -0.43 and CDC25B CDK2 inh -1.1.
For CN1CCN(C(=O)NC2COc3ccccc3C2)CC1 (stereo not drawn) the results were TAR Tat displ 0.13.
Screening COc1nc(-c2ccc(C)cc2)ccc1-c1noc(C)n1 returned TAR Tat displ -2.41 and CDC25B CDK2 inh -0.94.

No new results follow: entries from further up.
For COc1ccccc1-c1nc(=S)c2c([nH]1)Oc1c(C)ncc(CO)c1C2 the results were TAR Tat displ -0.43 and CDC25B CDK2 inh -1.1.
For CN1CCN(C(=O)NC2COc3ccccc3C2)CC1 (stereo not drawn) the results were TAR Tat displ 0.13.
Screening COc1nc(-c2ccc(C)cc2)ccc1-c1noc(C)n1 returned TAR Tat displ -2.41 and CDC25B CDK2 inh -0.94.

New compounds follow:
Fc1ccc(-c2nnc3ccc(N4CCc5ccccc5C4)nn23)cc1 was read as TAR Tat displ 0.62 and CDC25B CDK2 inh -1.57.
Cc1ccc(C2c3c(oc4ccccc4c3=O)C(=O)N2CCCN2CCOCC2)cc1 (stereo not drawn) was read as TAR Tat displ 0.81 and CDC25B CDK2 inh 0.1.
COc1ccc2c(c1)c(N1CCCC1=O)c(C(=O)NC1CC1)n2C was read as TAR Tat displ 1.4.
`O=C(NCc1ccccc1)N1CCN(c2nc3cc(F)ccc3n3cccc23)CC1` gave TAR Tat displ 0.05.
CCOc1cc(CNCCO)cc(Cl)c1OCc1cccs1 was read as TAR Tat displ 3.19 and CDC25B CDK2 inh -0.31.
`CCS(=O)(=O)N1CCC2(CC1)OC(=O)C(C)=C2C(=O)NCCN1CCN(C)CC1` gave TAR Tat displ 0.79.
CCOC(=O)c1cnc(SCSc2nc3ccccc3s2)nc1N was read as TAR Tat displ 0 and CDC25B CDK2 inh -2.24.
`Cc1ccccc1-c1noc(-c2cccnc2NCc2ccccc2)n1` gave TAR Tat displ 1.53 and CDC25B CDK2 inh -0.75.
Screening COc1ccc(Nc2c3c(nc4ncnn24)CCC3)cc1 returned TAR Tat displ 1.48.
CCOc1ccc(-n2c(C)c(C)c3c2ncn2nc(-c4ccc(OC)cc4)nc32)cc1 was read as TAR Tat displ -0.57 and CDC25B CDK2 inh -2.41.
CN(C)CCNC(=O)C1CCCN(C(=O)c2cnn(-c3ccc(F)cc3)c2-n2cccc2)C1 (stereo not drawn) was read as TAR Tat displ 1.74.
Screening CCOc1ccc(C2CC(=O)C3=C(C2)NC(C)=C(C(=O)OCCOC)C3c2cccs2)cc1OC (stereo not drawn) returned TAR Tat displ 0.66 and CDC25B CDK2 inh 0.16.
For CCOC(=O)c1ccc2nc(/N=C/NO)sc2c1 the results were CDC25B CDK2 inh -0.61.
O=C(CN1C(=O)c2ccccc2C1=O)N1CC=C(c2ccccc2)CC1 was read as CDC25B CDK2 inh -0.5.
`Clc1ccc(Cc2nc(-c3ccccn3)no2)cc1` gave CDC25B CDK2 inh -1.11.
Screening COC(=O)c1sc2cccc(F)c2c1S(=O)(=O)Nc1cc(Cl)ccc1OC returned TAR Tat displ 0.14.
N#CCCN(Cc1ccco1)S(=O)(=O)c1cccc2nsnc12 was read as CDC25B CDK2 inh -0.99.
For CN(C(=O)CCCc1nc(-c2ccco2)no1)c1ccccc1 the results were TAR Tat displ 0.62 and CDC25B CDK2 inh -1.21.
Screening Cc1ccc(-n2c(O)cnc2Nc2nc(C)cc(C)n2)cc1 returned TAR Tat displ 4.69 and CDC25B CDK2 inh -1.95.
Screening O=C1c2cccnc2C(=O)N1Cc1ccc(S(=O)(=O)Nc2ccccn2)s1 returned TAR Tat displ -0.87.
CCCCN(CCCC)CCn1cnc2c([nH]c3ccc(C)cc32)c1=O was read as TAR Tat displ 1.64 and CDC25B CDK2 inh 1.21.
For Nc1ccc(C(=O)Nc2cc(NC(=O)c3ccc(N)cc3)cc(C(=O)N3CCCCC3)c2)cc1 the results were CDC25B CDK2 inh -0.3.
Cc1cc(OCC(=O)Oc2ccc(-n3cnnn3)cc2)cc(C)c1Cl was read as TAR Tat displ -0.43 and CDC25B CDK2 inh 0.
CC1CC(C)(C)N(C(=O)Nc2ccccc2)c2ccccc21 (stereo not drawn) was read as TAR Tat displ 1.91 and CDC25B CDK2 inh -0.9.
For CCCn1c(CN2CCOCC2)nc2ccccc21 the results were TAR Tat displ 0.63 and CDC25B CDK2 inh 0.32.
For O=C(Nc1ccc(C(=O)N2CCN(Cc3ccc4c(c3)OCO4)CC2)cc1)C1=CSCCO1 the results were TAR Tat displ 1.19.
For O=C(NCCCN1CCCC1)c1[nH]nc2c1CCc1ccccc1-2 the results were TAR Tat displ 0.39.
Screening Cc1cccc(-c2nnc3n2N=C(c2ccccc2)CS3)c1 returned TAR Tat displ -0.52 and CDC25B CDK2 inh -0.62.
CSc1ncc(Cl)c(C(=O)Nc2nnc(SCc3ccccc3)s2)n1 was read as TAR Tat displ 3.27 and CDC25B CDK2 inh -2.18.
`CSc1ncc(C(=O)Nc2ccc(Br)c(C)c2)c(C(F)(F)F)n1` gave TAR Tat displ -0.38.
For COc1ccc(OC)c(NC(=O)C(C)n2c(C)nc3onc(C)c3c2=O)c1 (stereo not drawn) the results were TAR Tat displ 0.71.
Screening CCCOc1ccc(N2C(=O)CC(SCC(=O)O)C2=O)cc1 (stereo not drawn) returned TAR Tat displ 1.28 and CDC25B CDK2 inh 0.2.
`Cc1scc(CCNC(=O)Nc2ccccc2F)c1C` gave TAR Tat displ 0.84.

Screens (PubChem)
